Bioassay records: PubChem BioAssay, several laboratories
A1 inh: caspase 3/7 activation in MEF A1-2A-BIM cells, primary screen, A1 inhibitor project, cell-based, luminescence, HTS | Caspase-Glo 3/7 luminescence, 3 h; percent of clofoctol response, vehicle zero | caspase activation, % (concentration not given with the values) | 330,000 compounds, 0.066% hits | AID 2462, 2010;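 active = over half of replicate activation scores above 10%, or exactly half above 10 with the replicate mean above 10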;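 note: wells of about 30 µL received 50 nL stock; many hits fall short of the cut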
rRNA inh HTS: reduced GFP signal of wild-type E. coli, primary screen, bacterial rRNA inhibitor project, GFP/RFP fluorescence, OD600, single point; 350,000 compounds, 1.6% hits; E. coli WT GFP vs humanized-ribosome RFP mutants, 24 h; active compounds read low; DMSO median 0, no signal -100; GFP signal change (wild-type ribosome), % (no concentration beside the values);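 active = significant combined selectivity score with lowered wild-type GFP, culture density cut under 30%, mutant RFP and density less affected; inactive = any of these conditions unmet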; note: one replicate is shown; some compounds called inactive have numbers as strong as hits
MLL AF4-AF9 inh: inhibitors of AF4 peptide binding to AF9, primary screen, biochemical, AlphaScreen, biotin-AF4 peptide, FLAG-AF9, single point; inhibition, % at 10 µM; 350,000 compounds, 0.47% hits; Protein AF-9 (Homo sapiens), P42568;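 active = every replicate reaching a set inhibition limit, whatever the replicate mean, cut at about 25% in these data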;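 note: 0% = plate neutral control median and 100% = total signal loss; the record names both 10 and 1 µM as test concentration; the first replicate is given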
Target sequence (P42568 whole entry, looked up): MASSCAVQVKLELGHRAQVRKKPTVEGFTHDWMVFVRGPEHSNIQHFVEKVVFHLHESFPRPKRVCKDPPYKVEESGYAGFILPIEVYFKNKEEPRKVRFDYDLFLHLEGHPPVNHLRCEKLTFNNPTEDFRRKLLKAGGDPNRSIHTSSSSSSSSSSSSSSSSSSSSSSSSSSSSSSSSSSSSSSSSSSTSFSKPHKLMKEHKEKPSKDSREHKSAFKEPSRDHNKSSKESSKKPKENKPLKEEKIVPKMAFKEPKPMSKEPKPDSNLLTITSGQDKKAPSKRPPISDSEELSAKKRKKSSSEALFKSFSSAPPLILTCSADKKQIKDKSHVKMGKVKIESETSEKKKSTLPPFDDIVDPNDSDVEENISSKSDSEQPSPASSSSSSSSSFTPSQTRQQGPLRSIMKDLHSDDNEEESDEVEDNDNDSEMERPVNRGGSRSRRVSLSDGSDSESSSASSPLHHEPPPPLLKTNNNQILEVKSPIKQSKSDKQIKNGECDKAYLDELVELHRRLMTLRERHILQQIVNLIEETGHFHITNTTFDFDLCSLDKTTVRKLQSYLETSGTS
FGF22 binding: binders of human FGF22 protein, primary screen, FGF22 synaptogenesis inhibitor project, biophysical, thermal shift, single point | Fibroblast growth factor 22 (Homo sapiens), Q9HCT0 | recombinant FGF22 thermal shift, SYPRO orange fluorescence; percent of sucrose octasulfate shift, DMSO zero | calls only at 9.99 µM | 340,000 compounds, 1.5% hits;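 active = melting point raised past a set limit in the mean and every replicate; three in four hits are not shown here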
Target sequence (Q9HCT0 whole entry, looked up): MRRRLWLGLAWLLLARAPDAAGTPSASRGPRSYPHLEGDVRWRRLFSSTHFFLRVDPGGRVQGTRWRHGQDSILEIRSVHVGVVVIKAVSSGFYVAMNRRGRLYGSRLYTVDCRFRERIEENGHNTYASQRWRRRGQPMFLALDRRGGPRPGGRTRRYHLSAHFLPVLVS
T cruzi inh: inhibitors of intracellular T. cruzi growth, primary screen, luminescence, NIH3T3 host cells. T. cruzi beta-gal in NIH3T3, 90 h. 300,000 compounds, 1.4% hits. inhibition, % (test concentration not listed);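 active = mean inhibition across valid replicates above about 55%, limit read from the data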;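 note: signal also drops with host cell toxicity which is not excluded here; 0% = plate median of DMSO wells and 100% = zero luminescence signal; higher percent means less beta-gal luminescence so fewer parasites; stock transfer was 50 nL into about 50 µL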
Ecoli growth: E. coli growth inhibition, primary screen, OD600; Escherichia coli growth, 23 h; active compounds read low; OD600 absorbance (no concentration beside the values); 330,000 compounds, 0.21% hits; AID 1053175, 2014;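 active = OD600 absorbance below the run mean of sample wells minus 3.6 SD, in any replicate, cut at about 0.56 in these data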;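 note: stock transfer was 300 nL into about 60 µL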
UCH37 inh: inhibitors of human UCH37 deubiquitinase, primary screen, biochemical, Ub-AMC cleavage, fluorescence. 330,000 compounds, 0.33% hits. inhibition, % (no concentration beside the values). AID 588478, 2011. purified proteasome/UCH37. Ubiquitin carboxyl-terminal hydrolase isozyme L5 (Homo sapiens), Q9Y5K5;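 active = mean of two replicates above 20%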;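 note: 0% = compound-free wells with enzyme and 100% = wells lacking proteasome; stock transfer was 100 nL into about 20 µL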
Target sequence (Q9Y5K5 whole entry, looked up): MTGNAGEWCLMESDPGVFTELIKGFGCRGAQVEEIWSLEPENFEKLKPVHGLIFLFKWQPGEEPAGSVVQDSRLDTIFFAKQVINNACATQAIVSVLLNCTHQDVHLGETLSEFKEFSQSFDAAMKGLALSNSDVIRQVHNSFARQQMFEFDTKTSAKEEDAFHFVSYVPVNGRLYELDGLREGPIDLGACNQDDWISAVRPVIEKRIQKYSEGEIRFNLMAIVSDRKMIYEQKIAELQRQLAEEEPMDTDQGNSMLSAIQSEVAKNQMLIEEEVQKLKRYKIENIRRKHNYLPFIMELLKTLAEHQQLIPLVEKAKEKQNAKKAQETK
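Material: Human UCH37 enzyme supplied as purified proteasome complex | Schedule: 30 min compound-proteasome preincubation then 25 min substrate reaction, room temperature | Detection: AMC fluorescence from Ub-AMC cleavage, excitation 355 nm, emission 460 nm | Benchmarks: Wells without proteasome as full block, compound-free enzyme plus substrate as uninhibited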
Beta apoptosis: inhibitors of cytokine-induced beta cell apoptosis, primary screen, luminescence; INS-1E cytokine-induced death, ATP luminescence, 48 h; percent of positive-control rescue, neutral wells zero; protection from apoptosis, % (concentration not given with the values); 300,000 compounds, 0.8% hits;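 active = all replicates at 75% or more, or half of them and the mean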;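 note: 0% = cytokine-treated negative control wells and 100% = positive control rescue; higher means more ATP so stronger rescue from cytokine killing; wells of about 40 µL received 100 nL stock; the first replicate is given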
rRNA inh HTS OD600: also measured in rRNA inh HTS; calls as there; OD600 change, %; measured here: OD600 growth;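 optical density of the mix in the first replicate; 0 = DMSO median and -100 = no signal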
rRNA inh HTS RFP: further read-out of rRNA inh HTS, marked with its call; RFP signal change, %; measured here: RFP humanized mutant strains;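 first replicate; 0 = DMSO median and -100 = no signal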
The depositor's hits bear a star; i = inactive; nt = no result given. This is a subset (hit frequency here may not be typical).

SMILES | A1 inh | rRNA inh HTS | rRNA inh HTS OD600 | rRNA inh HTS RFP | MLL AF4-AF9 inh | FGF22 binding | T cruzi inh | Ecoli growth | UCH37 inh | Beta apoptosis
CCc1cc(=O)n2[nH]c(C)c(-c3ccccc3OC)c2n1 | 0.4 | -3 | -5 | -4.3 | 5.8 | i | -8 | 0.62 | 1.7 | -2
CCOC(=O)C1(CCCc2ccccc2)CCN(C(=O)CCn2cnnn2)CC1 | -0.5 | -1 | 7 | -5.0 | -3.7 | i | -1 | 0.7 | 3.3 | 2
CC1Nc2ccccc2C(=O)N1NC(=O)c1ccc(Br)cc1 (centres undefined) | 0.0 | 10 | 5 | -0.7 | -5.0 | nt | 7 | 0.68 | 3.4 | -1
O=C1NC(=O)C2C1C(c1ccccc1)N1C3C(=O)NC(=O)C3C(c3ccccc3)N21 (centres undefined) | -0.1 | -1 | -6 | 1.5 | nt | nt | 5 | 0.73 | 2.2 | -7
Cc1ccccc1C(=O)N=c1c(C#N)cc2c(=O)n3cccc(C)c3nc2n1Cc1ccco1 | -1.6 | nt | nt | nt | nt | nt | -6 | 0.68 | -36 | -3
O=C(/C=C/c1ccc2c(c1)OCO2)NCC1CCCO1 (centres undefined) | -0.8 | -4 | 9 | 1.1 | -0.3 | i | -19 | 0.71 | -39 | 1
CCOc1ccc(N2CC(C(=O)NCCN3C(=O)S/C(=C\c4ccc(OC)c(OC)c4)C3=O)CC2=O)cc1 (centres undefined) | 0.5 | 9 | 9 | 2.3 | -1.0 | i | -11 | 0.7 | 6.4 | 5
CN1C(=O)Cc2cc(S(=O)(=O)NCc3c(F)cccc3Cl)ccc21 | 1.3 | 3 | 7 | 3.3 | -2.5 | i | 1 | 0.68 | -0.2 | 1
Cc1ccccc1OC(C)C(=O)NCCC1=CCCCC1 (centres undefined) | 1.2 | -22 | -27 | -6.9 | -2.8 | i | 6 | 0.73 | 2.3 | 0
Nc1c(Cl)nc(-c2ccccc2)nc1Cl | 1.1 | -30 | -48 | -9.3 | -0.6 | i | -10 | nt | nt | -2
Cc1cc(C)c[n+](CC(=O)c2cc3ccccc3oc2=O)c1 | -1.1 | nt | nt | nt | nt | nt | 2 | 0.64 | -36 | -6
Cn1nc(C(=O)Nc2cccc(C(F)(F)F)c2)ccc1=O | -0.4 | nt | nt | nt | nt | nt | nt | 0.72 | 2.8 | 2
CC1(CCc2ccccc2)NC(=O)N(CC(=O)Nc2ccc(OC(F)F)cc2)C1=O (centres undefined) | 0.8 | -29* | -21* | 1.0* | 1.5 | i | nt | 0.67 | 3.5 | 5
CC(=O)c1cc(F)c(N2CCN(CCC#N)CC2)cc1C | -0.5 | 9 | 1 | 2.0 | nt | nt | -2 | 0.71 | 2.1 | 7
COc1ccc(CN2CC(C(=O)NCCc3ccc(Cl)cc3)CC2=O)cc1 (centres undefined) | -0.3 | -8 | -17 | -0.6 | -0.3 | i | -3 | 0.64 | -0.4 | 1
Cc1cc(C(=O)COC(=O)c2ccc(O)cc2O)c(C)n1-c1ccccc1 | -9.8 | nt | nt | nt | 3.2 | i | nt | 0.67 | 0.9 | 4
CC(NC(=O)/C(=C\c1ccco1)NC(=O)c1ccco1)C(=O)O (centres undefined) | 0.0 | 20 | 7 | 15 | -3.4 | i | -11 | 0.69 | 1.8 | -3
COc1cc(CNCCN2CCOCC2)ccc1OCc1ccccc1Cl | 0.8 | nt | nt | nt | nt | nt | 36 | 0.68 | -0.8 | -16
O=C(Cc1ccccc1F)Nc1ccc(Cl)nc1 | 0.1 | nt | nt | nt | nt | nt | 1 | 0.7 | 5.6 | nt
Cc1cc(SCc2ccc(Cl)cc2)nc(=O)[nH]1 | -0.5 | -8 | 7 | 5.9 | -0.1 | i | -12 | 0.72 | 1.0 | nt
CC(=O)c1cc2c(cc1NC(=O)CN1CCC(Cc3ccccc3)CC1)OCO2 | -0.5 | nt | nt | nt | nt | nt | 7 | 0.71 | -23 | 2
CCOC(=O)C1C(C(=O)OC)=C(C2=CCCCC2)c2ccccc2N1S(=O)(=O)C(F)(F)F (centres undefined) | nt | -4 | 1 | 2.6 | 2.8 | i | nt | 0.71 | 4.4 | nt
Cc1ccc(-c2nnc(SCC(=O)N(C)C)nc2-c2ccc(C)cc2)cc1 | 0.3 | -13 | -39 | -10.0 | 9.7 | i | 7 | 0.68 | 6.1 | 12
COc1cccc(N2C(=O)Nc3ccc(Br)cc3C2(O)C(=O)NCCCOC(C)C)c1 (centres undefined) | -1.3 | 9 | 14 | -1.6 | -0.8 | i | -7 | 0.65 | 6.9 | -2
COCCCn1c(=S)[nH]c2sc3c(c2c1=O)CCCS3 | 1.8 | -39 | -59 | -22 | 0.5 | i | -13 | 0.71 | 2.1 | 11

Looked up by compound from the list above (four):
SMILES | A1 inh | rRNA inh HTS | rRNA inh HTS OD600 | rRNA inh HTS RFP | MLL AF4-AF9 inh | FGF22 binding | T cruzi inh | Ecoli growth | UCH37 inh | Beta apoptosis
CCOC(=O)C1(CCCc2ccccc2)CCN(C(=O)CCn2cnnn2)CC1 | -0.5 | -1 | 7 | -5.0 | -3.7 | i | -1 | 0.7 | 3.3 | 2
COCCCn1c(=S)[nH]c2sc3c(c2c1=O)CCCS3 | 1.8 | -39 | -59 | -22 | 0.5 | i | -13 | 0.71 | 2.1 | 11
O=C(Cc1ccccc1F)Nc1ccc(Cl)nc1 | 0.1 | nt | nt | nt | nt | nt | 1 | 0.7 | 5.6 | nt
Cc1cc(C(=O)COC(=O)c2ccc(O)cc2O)c(C)n1-c1ccccc1 | -9.8 | nt | nt | nt | 3.2 | i | nt | 0.67 | 0.9 | 4

(more compounds)
SMILES | A1 inh | rRNA inh HTS | rRNA inh HTS OD600 | rRNA inh HTS RFP | MLL AF4-AF9 inh | FGF22 binding | T cruzi inh | Ecoli growth | UCH37 inh | Beta apoptosis
Cc1cc(SCC(=O)c2ccccc2)nc(C)n1 | -1.5 | nt | nt | nt | nt | nt | -15 | 0.76 | 6.0 | -5
O=C(CNC(=O)c1cccs1)N/N=C/c1cccc(Cl)c1 | -0.5 | -7 | 1 | 0.3 | -2.2 | i | -2 | nt | nt | -5
O=C(COC(=O)c1ccccc1[N+](=O)[O-])Nc1cccnc1Cl | -0.3 | 1 | -1 | -1.7 | -13 | i | 0 | 0.62 | 2.8 | 4
Cc1ccc(NC(=O)CNCc2ccccc2Cl)cc1S(=O)(=O)N(C)C | 0.5 | -14 | -18 | -0.9 | 0.7 | i | 14 | 0.68 | 3.0 | 6
CC(C)(C)OC(=O)C[C@H]1C/C=C\C[C@@H](CC(=O)N[C@@H](CO)Cc2ccccc2)C(=O)NC[C@@H](c2ccccc2)OC1=O | 0.1 | -12 | -21 | 24 | -10 | i | nt | nt | 4.1 | 0
Cc1ccccc1NC(=O)c1cc(C(=O)c2cc(Cl)ccc2O)cn(-c2ccccc2C)c1=O | 0.2 | 13 | 23 | 30 | 4.4 | i | 2 | 0.68 | 3.4 | 73
CCC/C(=N\NC(=O)C1CCCC1)c1ccccc1 | 2.7 | 3 | -1 | -0.4 | 0.8 | i | -5 | nt | nt | 0
O=C(Nc1ccccc1)N1CCC(O)(c2cccc(C(F)(F)F)c2)CC1 | 0.1 | -11 | -8 | -3.5 | 1.4 | i | -2 | 0.7 | 0.4 | 2
c1ccc2sc(NC3=NCN(C4CCCCC4)CN3)nc2c1 | 0.0 | 13 | 0 | -12 | 5.6 | i | -2 | 0.71 | 1.4 | -1
O=C(Cn1cncn1)c1ccc(Cl)cc1 | 0.2 | 5 | 7 | -0.8 | 3.4 | i | -16 | 0.68 | 5.8 | -10
CCN(CC(=O)NCCc1ccccc1)S(=O)(=O)c1ccc(C)cc1 | 0.5 | nt | nt | nt | nt | nt | -9 | 0.69 | 1.7 | 3
COCCN(C(=O)CCCC(=O)Nc1ccccn1)C(C(=O)NC1CCCC1)c1ccc(C)cc1 (centres undefined) | 0.9 | nt | nt | nt | nt | nt | 15 | 0.72 | 3.0 | -1
COc1cc(NS(=O)(=O)c2cc(C(=O)N3CCN(C(C)=O)CC3)ccc2OC)cc(OC)c1 | 0.4 | 6 | 2 | -1.1 | 0.8 | i | 7 | 0.73 | 3.4 | -2
CCOc1ccccc1/C=N/NC(=O)c1nnn(-c2nonc2N)c1CN1CCC(C)CC1 | 1.8 | 5 | 3 | -2.5 | -2.0 | i | -17 | nt | nt | 8
COc1ccc(-c2cc(C(F)(F)F)n3nc(C(=O)NCCN4CCOCC4)cc3n2)cc1 | 0.1 | -2 | 3 | -1.6 | -0.4 | i | -17 | 0.69 | -268 | -8
COc1cc(C(C2C(=O)CC(C)(C)CC2=O)C2C(=O)CC(C)(C)CC2=O)cc(OC)c1OC | 0.7 | 14 | 6 | -0.5 | -4.0 | i | -11 | 0.7 | 2.3 | -1
COc1ccc(CN(C)C(=O)CCN=C2NS(=O)(=O)c3ccccc32)c(OC)c1 | -0.1 | -8 | 3 | 2.6 | -0.3 | i | nt | 0.69 | 0.2 | 0
CS(=O)(=O)N(CC(=O)Nc1ccc2c(c1)OCO2)Cc1ccc(Cl)cc1 | 0.0 | nt | nt | nt | nt | nt | -7 | 0.68 | 3.6 | 0
COc1ccc(OC)c(S(=O)(=O)NCc2cc(-c3ccccc3)no2)c1 | 0.2 | 3 | 7 | 1.9 | -3.1 | i | -5 | 0.71 | 1.8 | 0
O=C(COCc1ccccc1)N[C@@H](Cc1ccc(O)cc1)C(=O)O | 0.9 | 8 | 14 | 8.0 | 0.0 | i | -10 | nt | 0.5 | -2
COc1ccc(/C=C2\SC(N)=NC2=O)cc1 | -0.9 | 6 | 7 | 0.4 | 2.4 | i | -5 | 0.64 | 2.6 | nt
CN(CC(=O)N1CCOCC1)S(=O)(=O)c1ccc2ccccc2c1 | 0.0 | 7 | 10 | 1.8 | -2.6 | i | 8 | 0.69 | 3.7 | 4
O=C(Nc1cc(Cl)ncn1)c1ccccc1 | -2.2 | nt | nt | nt | 1.4 | i | -15 | 0.6 | 1.7 | 1
CC(Cc1ccccc1)NC(=O)c1cc2ccccc2o1 (centres undefined) | -1.4 | -7 | -10 | 1.5 | -2.2 | i | 19 | 0.69 | 4.3 | 5
CCC(=O)N1CCc2cc(S(=O)(=O)CCC(=O)NCc3cccc(OC)c3)ccc21 | -0.4 | 14 | 8 | 1.4 | -3.2 | i | -7 | 0.69 | 6.3 | 1
Cc1cccc(N2CCN(C(=O)c3ccc(-n4cncn4)c([N+](=O)[O-])c3)CC2)c1C | 1.8 | -20 | -20 | -1.3 | 4.9 | i | -5 | 0.7 | 2.4 | -7
CC(C)(C)NC(=S)NC(=O)C12CC3CCC(CC(C3)C1)C2 | 0.2 | 17 | 5 | -13 | -0.1 | i | 29 | 0.67 | 1.9 | 9
COc1ccc(-c2cc(-c3ccc(OC)cc3)nc(-c3ccc4c(c3)NC(=O)CO4)c2)cc1 | 0.5 | nt | nt | nt | nt | nt | 43 | 0.73 | -5.9 | 4
